Screens: PubChem BioAssay, several laboratories
UUG fidelity: modulators of yeast start codon fidelity, primary screen, whole organism, S. cerevisiae, single point, plate reader | AID 602363, 2012 | 350,000 compounds, 0.13% hits | activity score, % at 18.7 µM | S. cerevisiae UUG-firefly luciferase reporter, luminescence/redox ratio;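 active = replicate mean at a twofold rise or more, about +100% in these data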;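 note: firefly luciferase made from a UUG start codon reports start codon fidelity; reporter light over untreated wells divided by growth signal over untreated wells; some hits fall short of that in this replicate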
eIF4H FP inh: human eIF4H binding inhibitors, primary screen, translation initiation inhibitor project, biochemical, uHTS, fluorescence polarization | Eukaryotic translation initiation factor 4H (Homo sapiens), Q15056 | eIF4H fluorescence polarization binding assay | inhibition, % at 35 µM | 290,000 compounds, 0.94% hits | AID 2012, 2009;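 active = 50% or more with normal probe brightness, or confirmed in later tests; inconclusive = above 50% with abnormal brightness, or retests that disagree; inactive = below 50% or failed in later tests; about a fifth of its hits are not listed in these tables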;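 note: calls also rest on retests at 20 µM and on dose response follow-up; 0% = protein and probe with vehicle and 100% = probe without protein; strong numbers were not always called active; many hits fall short of the cut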
PABP FP inh: PABP poly(A) RNA binding inhibitors, primary screen, biochemical, fluorescence polarization, uHTS. inhibition, % at 35 µM. 290,000 compounds, 1% hits. AID 2014, 2009;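 active = 50% or more with normal probe brightness, or confirmed in later tests; inconclusive = above 50% with abnormal brightness, or retests that disagree; inactive = below 50% or failed in later tests; about a fifth of its hits are not listed in these tables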;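 note: calls also rest on retests at 20 µM and on dose response follow-up; controls were probe without protein and protein plus probe with vehicle; some compounds called inactive have numbers as strong as hits; many hits fall short of the cut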
Target sequence (P11940 whole entry, looked up): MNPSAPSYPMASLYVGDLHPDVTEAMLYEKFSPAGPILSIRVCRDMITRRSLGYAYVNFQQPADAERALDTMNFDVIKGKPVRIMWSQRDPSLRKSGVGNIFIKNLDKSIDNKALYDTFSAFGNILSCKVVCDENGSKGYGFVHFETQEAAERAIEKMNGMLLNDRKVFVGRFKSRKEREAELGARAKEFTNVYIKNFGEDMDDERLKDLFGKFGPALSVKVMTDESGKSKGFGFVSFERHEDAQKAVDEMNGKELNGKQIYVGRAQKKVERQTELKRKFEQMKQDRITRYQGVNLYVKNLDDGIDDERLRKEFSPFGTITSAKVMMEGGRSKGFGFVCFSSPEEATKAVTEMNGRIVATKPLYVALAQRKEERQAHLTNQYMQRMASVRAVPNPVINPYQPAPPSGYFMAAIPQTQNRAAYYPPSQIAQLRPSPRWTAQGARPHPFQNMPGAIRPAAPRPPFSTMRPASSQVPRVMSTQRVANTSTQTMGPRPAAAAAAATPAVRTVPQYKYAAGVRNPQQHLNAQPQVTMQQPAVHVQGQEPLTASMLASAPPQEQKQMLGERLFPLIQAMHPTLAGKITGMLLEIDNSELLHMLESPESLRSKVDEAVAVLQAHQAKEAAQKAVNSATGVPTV
CSC inhib: cancer stem cell viability inhibitors, primary screen, luminescence; 300,000 compounds, 1.1% hits; inhibition, % at 7.5 µM; cancer stem cell-like cells viability;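 active = mean at 75% or more and at least half the replicates too; inconclusive = mean and replicates disagree; tested in HMLE shEcad cells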;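 note: 0% = median of negative and 100% = median of positive control wells; the first replicate is given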
HIV Env fusion: inhibitors of HIV-1 Env-driven cell-cell fusion, primary screen, HeLa-JRFL effector, CEM21 target cells, luciferase; 360,000 compounds, 1.1% hits; AID 651610, 2012; inhibition, % at 12.3 µM;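 active = mean replicate inhibition score of at least 50 and every replicate individually at or above 50; inconclusive = only one of the two criteria met; inactive = mean below 50 and not all replicates reaching 50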;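 note: 0% = plate neutral controls and 100% = maraviroc near 300 nM; one replicate is shown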
Rce1 inh: yeast Rce1p protease inhibitors, primary screen, biochemical, fluorescence, cell-free homogeneous. calls only. yeast membranes, quenched prenylated peptide cleavage fluorescence. 290,000 compounds, 0.27% hits;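 active = fall in fluorescence gain of 50% or more versus controls, with final raw signal at or below 3038400; inconclusive = same 50% fall but final raw signal above 3038400; inactive = fall in fluorescence gain under 50%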;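 note: plate controls were neutral control wells for no effect and wells lacking membranes for full effect; tested at 10 µM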
Target sequence (Q03530 whole entry, looked up): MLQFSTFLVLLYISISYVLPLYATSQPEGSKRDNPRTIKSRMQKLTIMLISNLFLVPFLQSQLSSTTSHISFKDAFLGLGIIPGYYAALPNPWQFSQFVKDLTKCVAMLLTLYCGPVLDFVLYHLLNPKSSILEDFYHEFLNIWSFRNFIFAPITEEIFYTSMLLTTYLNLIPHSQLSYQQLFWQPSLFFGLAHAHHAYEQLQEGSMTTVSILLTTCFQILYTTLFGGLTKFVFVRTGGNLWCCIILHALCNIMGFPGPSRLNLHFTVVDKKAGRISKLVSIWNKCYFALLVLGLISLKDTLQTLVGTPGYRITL
MT1-MMP act inh: blockers of MT1-MMP proenzyme processing, primary screen, HT1080 RFP-PRO-GFP cells, GFP/RFP fluorescence; Matrix metalloproteinase-14 (Homo sapiens), P50281; 360,000 compounds, 0.061% hits; GFP/RFP ratio change, % at 20 µM; AID 651647, 2012; GFP/RFP ratio fluorescence, overnight; percent of plate control window, DMSO zero;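 active = GFP/RFP ratio change of at least 30% with cell ATP level not reduced by more than half and red fluorescence within 50% of control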; note: strong numbers were not always called active
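Test system: HT1080 cells expressing an RFP-PRO-GFP fluorescent reporter construct / Compound dosing: single-point 20 µM compound, 1% DMSO / Schedule: cells overnight before dosing, compound overnight, 37 °C, 5% CO2 / Evaluation: GFP/RFP fluorescence ratio / Control set: DMSO and RFP-L50D-GFP cell wells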
MT1-MMP act inh RFP: further read-out of MT1-MMP act inh, marked with its call; RFP signal change, %; measured here: RFP expression control read;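 0 = vehicle wells; hits needed this value within 50% of zero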
Starred values were filed as active, the others as inactive; i = inactive; ? = inconclusive; · = not tested or not shown. This is a subset (hit frequency here may not be typical).

SMILES | UUG fidelity | eIF4H FP inh | PABP FP inh | CSC inhib | HIV Env fusion | Rce1 inh | MT1-MMP act inh | MT1-MMP act inh RFP
COc1ccccc1Cc1c(-c2ccc(C)cc2)nc2ccc(Cl)cn12 | -15.3 | · | · | · | -104.5 | · | -1.3 | 7.3
COc1ccc(CCNC(=O)c2ccc(F)c(S(=O)(=O)N3CCCCC3)c2)cc1 | -11.3 | · | · | · | 22.0 | · | -2.5 | -19.4
Cc1sc(NC(=O)CCC(=O)O)c(C#N)c1C | · | -3.3 | -9.3 | -9.5 | 8.6 | i | -1.8 | 3.9
Cc1cc(NC(=O)Cn2nc3c(cc2=O)CCCC3)ccc1Br | 2.4 | -6.0 | 0.6 | -14.5 | · | i | 9.4 | 3.9
O=C(c1cc(C2CCCCN2C(=O)OCCF)on1)N1CCOCC1 (configuration not stated) | -7.4 | · | · | · | -19.5 | · | 2.4 | 8.2
O=C(COC(=O)c1ccccc1F)c1ccc(-n2nncc2-c2ccco2)cc1 | -2.6 | 12.8 | -1.8 | -10.9 | · | i | -0.3 | 0.4
O=c1oc2c3c(nn2c2ccccc12)CCCC3 | -28.7 | -8.6 | 6.4 | 0.2 | 0.9 | i | 0.7 | 4.9
CCOC(=O)c1c(CN2CCN(C)CC2)n(-c2ccccc2)c2cc(Br)c(O)cc12 | · | -5.0 | -8.2 | 21.5 | 9.0 | i | -12.3 | -11.9
Cc1nc2ccc(C(=O)NCCCn3ccnc3)cn2c1N(C)CC1CCCCC1 | -15.2 | · | · | · | -1.4 | · | 2.3 | 7.0
Cc1cc(Oc2ccc(C#N)cc2)nc(NCc2ccccc2)n1 | -20.0 | 3.3 | -0.2 | 3.7 | 60.6* | i | -2.4 | -17.9
COc1ccc(C(=O)NCCc2ccccn2)cc1S(=O)(=O)Nc1ccc(Br)cc1 | -10.9 | · | · | -2.3 | · | · | 0.1 | -2.2
CCc1nc(C)c(-c2ccccc2)c(=O)[nH]1 | -3.7 | 0.5 | 28.0 | · | 3.8 | i | -2.0 | -2.8
CNS(=O)(=O)c1cccc(C(=O)OCC(=O)Nc2sc3c(c2C#N)CCCCC3)c1 | · | 1.7 | -21.6 | -2.0 | -14.6 | i | -2.8 | 0.1
O=S(=O)(Nc1ccc(-c2nc3ccccc3o2)cc1)c1ccccc1 | 10.6 | -5.4 | -6.6 | 11.9 | -49.8 | i | 11.1 | 2.2
c1ccc(CNc2cccnc2)cc1 | 2.2 | · | · | · | -2.3 | · | 1.1 | 3.0
CN(C(=O)COC(=O)c1cccnc1Nc1cccc(C(F)(F)F)c1)C1CCS(=O)(=O)C1 (configuration not stated) | · | -7.8 | 7.9 | -14.4 | 20.6 | i | · | ·
S=C(NCc1ccccc1)NCc1cccc(CNC(=S)NCc2ccccc2)c1 | 1.1 | 0.1 | -4.7 | 37.0 | -1.2 | i | 0.1 | -3.3
CC1(C)C2CCC1(CS(=O)(=O)NCc1ccc(C(F)(F)F)cc1)C(=O)C2 (configuration not stated) | -29.1 | -6.9 | 4.5 | · | 17.9 | i | 3.3 | -2.2
Cc1ccc(S(=O)(=O)CC(O)COc2ccc(C#N)cc2)cc1 (configuration not stated) | -14.6 | -7.6 | 2.4 | -5.9 | -2.5 | i | -0.8 | -6.5
CC(=O)Nc1n[nH]c(S(=O)(=O)Cc2ccc(Cl)cc2Cl)n1 | -10.9 | -10.4 | 1.7 | -10.7 | · | i | 4.4 | 3.3
CC#CC[N+](C)(C)CCCCCCCCCCCC | -14.7 | 1.9 | -4.2 | 33.0 | 62.4* | i | -28.1 | -32.4
CCc1nnc(NC(=O)CN2CCN(Cc3cccc(Cl)c3)CC2)s1 | -2.5 | 5.8 | -5.4 | 1.6 | -10.1 | i | -4.6 | 1.2
Cc1cc(C)cc(NC(=O)NC(C)C2CCCO2)c1 (configuration not stated) | · | 1.7 | -0.4 | 1.2 | -0.4 | i | 2.1 | 2.1
CC(C)CC(C(=O)N1CCc2ccccc2C1)N1C(=O)c2ccccc2C1=O (configuration not stated) | 1.0 | -2.5 | 29.0 | 1.1 | · | i | -3.6 | 4.5
O=C(COc1ccc(Cl)cc1)NCc1nnc(SCC(=O)N2CCCc3ccccc32)o1 | -12.9 | -6.1 | 2.6 | 0.2 | -42.6 | i | 0.8 | -0.3
O=C(NNC1CC(=O)N(c2ccc(Cl)cc2)C1=O)c1ccccn1 (configuration not stated) | · | 7.6 | -1.7 | -35.9 | 1.9 | i | -0.1 | 6.9
CCc1cccc(C)c1NC(=O)C1CCCN1C(=O)NCc1ccccc1 (configuration not stated) | -15.3 | -0.1 | 4.3 | -15.2 | -20.9 | i | 1.3 | 0.0
Cc1cccc(N2CCN(c3nnnn3-c3ccccc3)CC2C)c1 (configuration not stated) | -3.8 | -0.6 | 12.9 | -18.2 | -25.1 | i | -5.1 | -9.8
COc1ccc(NC(=O)NNC(=O)c2cc3occc3n2C)c(OC)c1 | -3.6 | -17.9 | -9.0 | 20.2 | 23.3 | i | -2.9 | -0.7
CC(C)C(=O)Nc1sc2c(c1C(N)=O)CCN(Cc1ccccc1)C2 | -18.1 | -5.0 | -7.7 | -8.9 | 1.9 | i | 2.5 | 4.7
CC1CCN(C(=O)COc2ccc(S(=O)(=O)N3CCCC3)cc2)CC1 | 1.1 | -11.6 | 10.0 | -3.6 | 10.2 | i | 1.7 | 5.0
CC(=O)Nc1ccc(S(=O)(=O)NC2CC(=O)N(c3ccc(C)cc3)C2)cc1 (configuration not stated) | · | · | · | -6.5 | -2.6 | i | 3.8 | 0.3
O=C(CCC(=O)N1CCOc2ccccc21)NC1CCN(Cc2ccccc2)CC1 | 8.9 | -8.8 | -13.1 | 1.4 | -29.7 | i | 5.9 | 1.5
CCCCNC(=O)C1Cc2cc(S(=O)(=O)N3CCCC3)ccc2N1C(C)=O (configuration not stated) | 10.5 | -14.2 | 5.2 | -9.3 | -35.8 | i | 2.4 | 0.6
COc1cc2c(CCNC(C)=O)c[nH]c2cc1O | -3.4 | · | · | -3.0 | 11.9 | i | 7.3 | 5.3
COc1cc(C2Nn3c(nnc3-c3ccccc3OC)S2)ccc1O (configuration not stated) | -24.0 | 1.3 | -8.7 | -17.4 | · | i | -4.3 | -3.6
COc1ccccc1C(=O)NCCC(=O)N(C)Cc1cccnc1 | -12.4 | · | · | · | 15.2 | · | -1.6 | 1.0
Cc1cccc(C)c1OCC(=O)Nc1ccc(S(=O)(=O)Nc2ccccn2)cc1 | · | 6.2 | 10.9 | -4.7 | 12.7 | i | 3.9 | -1.3
O=C(Nc1ccccc1N1CCCC1)c1cc(S(=O)(=O)N2CCOCC2)ccc1Cl | -8.5 | · | · | -2.1 | · | i | 0.6 | -1.7
CSc1ccccc1C(=O)Nc1nccs1 | -10.2 | -4.7 | 3.2 | -3.2 | -96.0 | i | -6.5 | -0.3
COc1ccccc1NC(=O)COC(=O)CNC(=O)c1ccc(OC)c(OC)c1 | -8.1 | 10.0 | 1.7 | -6.8 | 42.3 | i | 3.2 | 1.0
CC(C)c1nnc(NC(=O)C2CCN(c3cnccn3)CC2)s1 | -2.0 | 10.9 | 0.9 | · | -29.5 | i | 2.5 | 0.4
CCN1CCCC1CNC(=O)Cn1cccc1C(=O)c1ccccc1C (configuration not stated) | -15.1 | -2.0 | -1.7 | 17.0 | · | i | 6.5 | 7.7
Cc1cccc(NC(=O)CN2C(=O)NC3(CCCC3)C2=O)n1 | -5.0 | · | · | -8.5 | 4.1 | i | 0.2 | 1.1
CN(C)CCNC(=O)c1cc2sc3ccccc3c2s1 | -14.0 | 1.9 | 2.3 | 1.5 | -23.6 | i | 2.1 | 0.4

Quoted at random: four entries already listed, in no set order.
SMILES | UUG fidelity | eIF4H FP inh | PABP FP inh | CSC inhib | HIV Env fusion | Rce1 inh | MT1-MMP act inh | MT1-MMP act inh RFP
CN(C)CCNC(=O)c1cc2sc3ccccc3c2s1 | -14.0 | 1.9 | 2.3 | 1.5 | -23.6 | i | 2.1 | 0.4
CC(=O)Nc1ccc(S(=O)(=O)NC2CC(=O)N(c3ccc(C)cc3)C2)cc1 (configuration not stated) | · | · | · | -6.5 | -2.6 | i | 3.8 | 0.3
COc1cc(C2Nn3c(nnc3-c3ccccc3OC)S2)ccc1O (configuration not stated) | -24.0 | 1.3 | -8.7 | -17.4 | · | i | -4.3 | -3.6
O=C(CCC(=O)N1CCOc2ccccc21)NC1CCN(Cc2ccccc2)CC1 | 8.9 | -8.8 | -13.1 | 1.4 | -29.7 | i | 5.9 | 1.5

(continued)
SMILES | UUG fidelity | eIF4H FP inh | PABP FP inh | CSC inhib | HIV Env fusion | Rce1 inh | MT1-MMP act inh | MT1-MMP act inh RFP
Oc1c(Br)cc(C2N=C(c3ccccc3Cl)NO2)cc1Br (configuration not stated) | -21.2 | -8.3 | 1.8 | -7.8 | -51.7 | i | 6.5 | 1.9
Cc1ccn2c(/C=N/OCc3cccc(F)c3)c(-c3ccc(Cl)cc3)nc2c1 | -5.8 | -1.4 | 6.4 | 25.3 | · | i | 0.0 | -4.4
CCCCN(C)CCNC(=O)c1cc2cc3ccc(OC)cc3nc2o1 | -2.0 | -3.2 | -3.6 | -8.8 | -19.9 | ? | 4.6 | -1.6
O=C(O)C[C@H]1c2cc(C(F)(F)F)ccc2S(=O)(=O)N1C1CCN(Cc2ccccc2)CC1 | -20.8 | · | · | -8.2 | 4.5 | i | -4.5 | 1.8
O=C(c1ccc(NS(=O)(=O)c2cccs2)cc1)N1CCCCC1 | -7.9 | -4.7 | 2.1 | -5.0 | 1.4 | i | 3.8 | -2.7
O=C(COC(=O)c1nsc(Cl)c1Cl)NC1CCCCC1 | · | 2.9 | 15.4 | 3.5 | 11.5 | i | -0.2 | -1.3
C/C(=N\NC(=O)c1cc(Br)ccc1O)c1cccs1 | -10.8 | -8.6 | -13.0 | 7.2 | -1.0 | i | 4.7 | 5.2
CCOc1ccc(C(=O)N2CCC3(CC2)NCCc2[nH]cnc23)cc1 | -8.2 | · | · | -2.2 | -12.9 | i | -2.3 | 3.8
CC(=O)Nc1ccc(S(=O)(=O)NCC2CCCO2)cc1 (configuration not stated) | -11.3 | · | · | -3.8 | -0.6 | i | 2.2 | 5.2
Nc1ccc(-c2nc3cc(N)ccc3o2)cc1 | -36.4 | -4.9 | 4.2 | 0.8 | -63.6 | i | 0.5 | -4.8
CCOC(=O)c1c(-c2ccccc2)c2cc(OC)ccc2n1CCCN(C)C | -5.3 | -5.3 | 9.7 | 3.7 | -35.4 | i | -10.9 | -7.5
O=C(C1CC(=O)N(c2ccc(F)cc2)C1)N1CCN(c2ccccc2)CC1 (configuration not stated) | -4.7 | -10.2 | -3.2 | -11.6 | · | i | 0.5 | -2.5
CN(C)S(=O)(=O)c1ccc(C(=O)Nc2nnc(Cc3ccccc3)s2)cc1 | -14.5 | -10.2 | -7.4 | -1.2 | · | i | -3.4 | -0.7
O=C(CNC(=O)C12CC3CC(CC(C3)C1)C2)N/N=C\c1ccco1 | -7.7 | -1.5 | 1.5 | -7.3 | -4.2 | i | 2.5 | 5.4
Oc1ccc2ccccc2c1-c1sc(Nc2ccccc2)n[n+]1-c1ccc(F)cc1 | -7.5 | ? | ? | 5.6 | -3.3 | i | -18.1 | -1.1
